Beta apoptosis – blocks beta cell apoptosis; INS-1E cytokine-induced death, ATP luminescence, 48 h; percent of positive-control rescue, neutral wells zero; protection from apoptosis, % (concentration not given with the values); 300,000 tested, 0.8% active;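 active = all replicates at 75% or more, or half of them and the mean; inconclusive = half reach 75% but not the mean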;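 also: 0% = cytokine-treated negative control wells and 100% = positive control rescue; higher means more ATP so stronger rescue from cytokine killing; wells of about 40 µL received 100 nL stock; the first replicate is given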
RanGTP-Impb inh – inhibitors of RanGTP-importin-beta interaction, primary screen, biochemical, FRET, CFP-Ran, YFP-importin-beta, homogeneous; AID 2216; 300,000 tested, 1.1% active; inhibition, % (concentration not given with the values); cell-free CFP-Ran/YFP-importin-beta FRET ratio;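 active = most replicates above 15%; inconclusive = exactly half above 15%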;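 also: 0% = DMSO wells and 100% = Ran loaded with GDP instead of GTP; wells of about 40 µL received 100 nL stock; the first replicate is given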
T cruzi repl – T. cruzi replication inhibition; T. cruzi beta-gal in NIH3T3, luminescence, 90 h; inhibition, % (no concentration beside the values); 300,000 tested, 1.4% active; AID 1885;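 active = mean inhibition across valid replicates above about 55%, limit read from the data; inconclusive = mean below that limit but half or more replicates reach it; inactive = mean below it, under half of replicates reach it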;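 also: signal also drops with host cell toxicity which is not excluded here; 0% = plate median of DMSO wells and 100% = zero luminescence signal; higher percent means less beta-gal luminescence so fewer parasites; stock transfer was 50 nL into about 50 µL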
ALR inh – human ALR oxidase inhibition via reduced H2O2; purified ALR, DTT oxidation, H2O2 HRP-luminol luminescence; 290,000 tested, 3.8% active; inhibition, % (test concentration not listed); P55789;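 active = mean and each replicate at 75% or more; inconclusive = only one of the two met; inactive = neither met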;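 also: stock transfer was 7.5 nL into about 7.5 µL; 0% = neutral wells and 100% = wells with inactivated enzyme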
Target sequence (P55789 whole entry, looked up): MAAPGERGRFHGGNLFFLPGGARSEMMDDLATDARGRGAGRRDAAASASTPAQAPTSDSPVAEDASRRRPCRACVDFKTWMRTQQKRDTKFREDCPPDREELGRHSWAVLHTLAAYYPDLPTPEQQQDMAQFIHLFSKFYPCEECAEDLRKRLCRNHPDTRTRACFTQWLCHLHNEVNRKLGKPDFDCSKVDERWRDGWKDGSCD
Calb FLC – C. albicans growth modulation with fluconazole | C. albicans CaCi-2 (fluconazole-resistant clinical isolate) + fluconazole, Alamar Blue growth, 48 h | growth inhibition, % (no concentration beside the values) | 300,000 tested, 0.57% active | AID 1979;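 active = most replicates above 75%; inconclusive = exactly half above 75%; inactive = most below 75%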;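 also: all wells also contain fluconazole at 8 µg/ml as a sub-toxic cotreatment; 0% = median of DMSO wells and 100% = median of geldanamycin control wells; wells of about 8 µL received 7.5 nL stock; the first replicate is given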
AF4-AF9 inh – blocks AF4 peptide binding to human AF9. AlphaScreen, biotin-AF4 peptide binding to FLAG-AF9. inhibition, % at 10 µM. 350,000 tested, 0.47% active. AID 651704;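 active = every replicate reaching a set inhibition limit, whatever the replicate mean, cut at about 25% in these data; inconclusive = mean inhibition reaches that limit but some replicates miss it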;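 also: 0% = plate neutral control median and 100% = total signal loss; the record names both 10 and 1 µM as test concentration; the first replicate is given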
Target sequence (P42568 whole entry, looked up): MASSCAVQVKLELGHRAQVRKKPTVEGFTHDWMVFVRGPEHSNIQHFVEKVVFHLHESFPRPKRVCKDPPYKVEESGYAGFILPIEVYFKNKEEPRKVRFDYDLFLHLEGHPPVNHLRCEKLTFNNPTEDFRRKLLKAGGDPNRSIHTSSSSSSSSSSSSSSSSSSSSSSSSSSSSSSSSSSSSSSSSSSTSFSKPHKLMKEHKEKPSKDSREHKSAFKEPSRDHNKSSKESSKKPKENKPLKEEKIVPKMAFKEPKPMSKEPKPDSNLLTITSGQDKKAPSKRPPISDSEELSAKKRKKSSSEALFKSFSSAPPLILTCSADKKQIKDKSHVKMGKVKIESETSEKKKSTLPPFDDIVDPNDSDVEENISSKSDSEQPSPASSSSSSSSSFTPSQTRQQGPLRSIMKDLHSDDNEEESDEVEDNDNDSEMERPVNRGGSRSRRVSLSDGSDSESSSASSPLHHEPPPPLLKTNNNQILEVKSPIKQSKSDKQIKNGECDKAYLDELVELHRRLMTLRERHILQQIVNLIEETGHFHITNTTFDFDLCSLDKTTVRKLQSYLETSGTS
FGF22 binding – binders of recombinant human FGF22 by thermal shift. 340,000 tested, 1.5% active. AID 651658. calls only at 9.99 µM. SYPRO orange fluorescence; percent of sucrose octasulfate shift, DMSO zero;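 active = melting point raised past a set limit in the mean and every replicate; inconclusive = no clear call; three in four hits are not shown here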
Target sequence (Q9HCT0 whole entry, looked up): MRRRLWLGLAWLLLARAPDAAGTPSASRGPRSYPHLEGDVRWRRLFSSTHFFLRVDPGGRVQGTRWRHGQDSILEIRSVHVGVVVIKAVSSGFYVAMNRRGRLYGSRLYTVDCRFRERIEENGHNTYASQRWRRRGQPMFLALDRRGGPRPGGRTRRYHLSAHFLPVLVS
Ecoli rRNA inh – selective bacterial rRNA inhibition in E. coli | E. coli WT GFP vs humanized-ribosome RFP mutants, fluorescence, 24 h; hits give low values; DMSO median 0, no signal -100 | GFP signal change (wild-type ribosome), % (test concentration not listed) | 350,000 tested, 1.6% active | AID 720706;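 active = significant combined selectivity score with lowered wild-type GFP, culture density cut under 30%, mutant RFP and density less affected; inactive = any of these conditions unmet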; also: one replicate is shown; some compounds called inactive have numbers as strong as hits
Ecoli rRNA inh OD600 – also measured in Ecoli rRNA inh; calls as there; OD600 change, %; measured here: OD600 growth;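 optical density of the mix in the first replicate; 0 = DMSO median and -100 = no signal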
Ecoli rRNA inh RFP – also measured in Ecoli rRNA inh; calls as there; RFP signal change, %; measured here: RFP humanized mutant strains;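 first replicate; 0 = DMSO median and -100 = no signal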
* hit, by the source's call; i = inactive; ? = inconclusive; . = no result given. This is a subset; the hit share may differ from the screen's.

Order of values – Beta apoptosis	RanGTP-Impb inh	T cruzi repl	ALR inh	Calb FLC	AF4-AF9 inh	FGF22 binding	Ecoli rRNA inh	Ecoli rRNA inh OD600	Ecoli rRNA inh RFP
COCCN1C(=O)N[C@@H](c2cccc(C(F)(F)F)c2)[C@@H](C(=O)OC)[C@H]1C
 : 0	1.9	1	6	-1	.	.	.	.	.
CC(C)c1ccc(/C=C2\SC(N3CCOCC3)=NC2=O)cc1
 : -3	0.4	0	2	1	0.9	.	-10	-7	-0.5
COc1ccc(-c2csc(NC(=O)CSCC(=O)Nc3cc(C)on3)n2)c(OC)c1
 : -6	1.9	-5	-7	-5	-3.0	.	5	6	2.0
CC(C)/C=C/CN1CCCC(N2CCN(c3cccc(Cl)c3)CC2)C1 (centres undefined)
 : 5	-2.1	49	5	-6	6.8	i	-10	-9	6.2
CCOC(=O)C(=O)/C(C#N)=C/Nc1ccc(F)cc1
 : -1	-3.0	-5	2	-5	.	.	.	.	.
CC(C)c1ccc(-c2cc(C(=O)N3CCOCC3)c3cc(Br)ccc3n2)cc1
 : 7	0.8	26	-1	-4	-1.6	i	8	4	-0.7
O=C(CC1C(=O)NCCN1Cc1ccc(F)cc1)NCCN1CCCc2ccccc21 (centres undefined)
 : -1	?	13	99*	9	8.5	i	11	8	6.2
Cc1nn(C2CCCCC2)c(N)c1-c1ccccc1
 : -5	0.1	21	97*	-4	.	.	.	.	.
CSc1ccc(-c2nc(CN3CCCCC3c3cccnc3)c(C)o2)cc1 (centres undefined)
 : -2	2.8	49	62	-4	6.5	i	-21*	-17*	0.3*
CCCCOc1ccc(-c2nnc(-c3cc[n+](C)cc3)o2)cc1
 : 10	?	9	-5	-26	.	.	.	.	.
CN(C)CCNC(=O)c1csc(Nc2cccc3ccccc23)n1
 : 17	3.6	-4	.	12	15	i	-1	-2	-1.2
CCCCNC(=O)NC12CC3CC(CC(C3)C1)C2
 : 3	-2.7	0	-4	-22	2.3	i	8	5	-3.0
COc1ccccc1NS(=O)(=O)c1cccs1
 : -4	-1.8	-6	6	2	-11	i	10	0	4.0
CCCC(=O)N(Cc1cc(=O)[nH]c2ccccc12)c1ccc(C)cc1C
 : 7	2.9	8	4	4	1.4	i	-7	-13	1.8
O=C1C2CC=CCC2C(=O)N1Cc1nnc(-c2ccc(Cl)cc2)o1 (centres undefined)
 : 3	-0.3	4	-7	16	-1.8	i	17	12	1.6
COc1ccc(C(=O)N2CCN(c3ccc(C(C)=O)cc3)CC2)cc1S(=O)(=O)N1CCCC1
 : 2	.	.	3	.	1.1	i	-4	-4	0.7
Cc1oc(S(=O)(=O)N(C)C)cc1C(=O)Nc1ccc(Cl)cc1
 : 3	7.2	2	-4	-1	-0.5	i	7	13	-0.2
O=C(O)c1ccc(NS(=O)(=O)c2cccc(C(=O)Nc3cccc(C(=O)O)c3)c2)cc1
 : -11	1.0	-4	-15	-10	4.9	.	10	9	0.6
NC(=O)COC(=O)c1ccccc1SCC(=O)NC1CCCCCCC1
 : 0	0.0	1	.	-7	4.3	i	3	9	-0.8
CCc1ccc(C(CNC(=O)c2ccc3c(=O)n(-c4ccccc4F)c(=S)[nH]c3c2)N(C)C)cc1 (centres undefined)
 : 0	?	26	0	26	11	i	-27	-69	-7.6

Copied from the list:
For ALR inh, CSc1ccc(-c2nc(CN3CCCCC3c3cccnc3)c(C)o2)cc1 (centres undefined) shows 62
For Ecoli rRNA inh OD600, CCCCNC(=O)NC12CC3CC(CC(C3)C1)C2 shows 5

Next part:
Order of values – Beta apoptosis	RanGTP-Impb inh	T cruzi repl	ALR inh	Calb FLC	AF4-AF9 inh	FGF22 binding	Ecoli rRNA inh	Ecoli rRNA inh OD600	Ecoli rRNA inh RFP
O=C1NC2(CCCCCC2)C(=O)N1Cc1cccc([N+](=O)[O-])c1
 : .	4.3	-6	.	1	2.3	i	6	7	-2.3
O=C(Nc1ccc(F)cc1)NC1CCN(Cc2nnnn2Cc2ccco2)CC1
 : -4	1.1	6	-9	1	.	.	.	.	.
O=C(N/N=C/C(Br)=C\c1ccccc1)c1ccc2nc[nH]c2c1
 : 15	-1.4	-2	.	-4	.	.	.	.	.
Cc1cccc(C)c1NC(=O)CN(C)C(=O)COc1cccc2c1OC(C)(C)C2
 : -4	-2.5	-11	-3	-1	0.0	.	7	2	-1.5
CCCCNC(=O)c1onc(CSc2ccc(Cl)cc2)c1C(=O)O
 : -5	4.1	-14	10	-4	-4.1	.	-20	-16	-13
O=C(CSCc1cccc(F)c1)N1CCN(c2ccccc2)CC1
 : -4	10	15	98*	-3	6.4	i	-27	-25	13
CCOC(=O)c1[nH]c(C)c(C(=O)N2CCc3c([nH]c4ccccc34)C2c2ccccn2)c1C (centres undefined)
 : 2	?	9	-4	40	13	.	-7	-8	2.5
COC(=O)c1c(C)nn(-c2ccc(OC(F)(F)F)cc2)c1-c1snnc1C
 : .	-0.3	-5	3	3	-8.4	i	-14	-23	-4.5
O=C(Nc1ccc(F)cc1)c1ccccc1CC[N+](=O)[O-]
 : 0	1.0	.	-4	-15	.	.	.	.	.
O=C(OCC(=O)N1CCCC1)c1cc(Br)ccc1Cl
 : -9	?	-10	-7	-4	-0.1	i	6	3	-3.9
O=C(CN1C(=O)NC2(CCCC2)C1=O)Nc1nc2ccccc2[nH]1
 : -3	-3.5	-1	0	.	-0.3	i	4	24	-1.9
CC1CN(S(=O)(=O)c2cccc(C(=O)OCCOc3ccccc3)c2)CC(C)O1 (centres undefined)
 : 4	.	.	.	.	-0.2	i	-1	-17	0.6
COc1ccccc1CN1CCN(Cc2ccco2)CC1
 : -8	-0.7	15	-16	15	5.0	i	0	9	-1.3
CCOC(=O)CN(C(=O)CNC(=O)c1cccs1)C(C(=O)NC1CCCCC1)c1cccs1 (centres undefined)
 : 1	-4.5	-8	-22	-8	.	.	.	.	.
COc1ccc(/C=C/C(=O)NC(=S)Nc2ccc(S(N)(=O)=O)cc2)cc1OC
 : -1	2.1	-13	-9	-3	0.0	i	24	14	5.9
COc1ccc(-n2c(SC(C)C(=O)Nc3ncc(Cl)cc3Cl)nc3ccccc32)cc1 (centres undefined)
 : -4	0.9	17	-2	-33	.	.	.	.	.
O=C(Cn1nnc(-c2ccccc2-n2cnnn2)n1)c1ccccc1
 : .	1.9	-4	3	15	.	.	.	.	.
COc1ccc(NC(=O)CC(C)n2ccnc2)cc1 (centres undefined)
 : -2	-1.9	-4	-8	1	-0.1	i	11	13	-1.1
Cc1c(OCC(=O)NCc2ccncc2)ccc2c3c(c(=O)oc12)CCCC3
 : 8	2.2	-1	-1	1	-2.8	i	-1	-3	-1.7
Cc1ccc(C(=O)NNC(=O)c2ccc(C)cc2)cc1
 : 5	-0.3	3	44	41	-2.3	.	5	20	-2.7

Order of values – Beta apoptosis	RanGTP-Impb inh	T cruzi repl	ALR inh	Calb FLC	AF4-AF9 inh	FGF22 binding	Ecoli rRNA inh	Ecoli rRNA inh OD600	Ecoli rRNA inh RFP
O=C(O)c1ccc(N/N=C/c2c[nH]c3ccccc23)cc1
 : -7	-3.9	-1	98*	-6	5.5	i	-5	6	2.0
N=C1C(c2ccccc2)=C(O)CN1NC(=O)c1ccccc1
 : -4	-3.0	-7	-6	-4	-2.4	.	-2	9	-1.8
O=C(Cn1c(=O)cnc2ccccc21)NCC(=O)Nc1ccc(F)c(F)c1
 : .	2.6	-6	-12	-4	0.9	i	12	19	2.1
Cc1ccc(S(=O)(=O)n2[nH]c(=O)cc2NC(=O)c2cccs2)cc1
 : -5	-0.9	-5	32	0	.	.	.	.	.
Cc1ccc(-c2noc(CN(C(=O)CCCN3C(=O)c4ccccc4C3=O)C(C)C)n2)cc1
 : 1	-3.2	2	-1	-1	.	.	.	.	.
O=C(CNC(=O)OCc1ccccc1)Nc1ccc(F)cc1
 : 8	.	.	0	.	-6.9	i	13	11	5.3
O=C(COc1ccccc1Cl)c1ccc[nH]1
 : .	0.3	1	-21	1	0.5	i	-2	-12	-3.1
O=C(NC1CCCCC1)c1ccccc1NC(=S)NC(=O)C1CCC1
 : 3	-3.0	-2	.	13	.	.	.	.	.
C=CCNC(=S)N1CCN(c2ccccc2Cl)CC1
 : -2	-0.4	9	4	-3	-2.2	i	-16	-19	-6.0
CC(C)(C)c1ccc(-c2nc(C#N)c(N3CCC(C(N)=O)CC3)o2)cc1
 : 0	3.5	5	-4	-7	23	i	-30	-40	-7.6
Cc1csc(NS(=O)(=O)c2cccc([N+](=O)[O-])c2)n1
 : 3	-0.7	-8	6	24	-1.4	i	8	11	-14
CCOc1ccc(N2C(=O)CC(N(CCc3ccc(OC)cc3)C(=O)c3cccc(F)c3)C2=O)cc1 (centres undefined)
 : 4	0.1	3	-5	11	-13	i	.	.	.
CCOc1ccc(S(=O)(=O)Nc2cccc(C(=O)N(C)Cc3cccc(OC)c3OC)c2)cc1
 : 2	4.0	4	-3	4	0.8	i	-4	-17	2.1
C[C@@H](CO)NC(=O)c1ccc2c3n(nc2c1)-c1ccc(Cl)cc1CO3
 : -2	-1.3	-3	5	-3	.	.	.	.	.
CCN1C(=O)C2(C(C(=O)c3ccc(C)o3)=C(O)C(=O)N2CCCN2CCOCC2)c2ccccc21 (centres undefined)
 : 1	-3.2	-2	-9	-5	.	.	.	.	.
Cc1ccc(NS(=O)(=O)c2cc(C(=O)Nc3cccc([N+](=O)[O-])c3)ccc2C)cc1
 : 8	0.3	25	-8	9	7.3	i	-1	8	-5.6
COc1ccc(CN2CCC(C(=O)c3ccc(F)cc3)CC2)cc1
 : -1	1.2	23	.	-8	-4.3	i	7	3	0.6
Cc1ccc(C(=O)NNC(=O)c2cc(OCC(F)(F)F)ccc2OCC(F)(F)F)cc1
 : -1	1.2	22	-20	4	.	.	.	.	.
C/C(=N\Nc1nc(N)cc(Cl)n1)c1ccc(Cl)c(Cl)c1
 : -12	3.6	10	-1	-13	-0.3	i	-15	8	-6.1

Compound activity as filed in PubChem.
